V. cholerae QS: Vibrio cholerae quorum sensing activators, luminescence (AID 686977) | 9,400 tested, under 10 active | luminescence at 50 µM unless noted; hits with a dose series show EC50 in µM | V. cholerae quorum sensing reporter, luminescence, 6 h; higher luminescence means a stronger effect; most inactives read 0;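 active = light above mean plus 3 SD and confirmed in a dose series; inconclusive = above that limit without a clear retest; inactive = below it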;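 also: raw light counts without normalisation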
* = called active by the depositor; u = inconclusive; [ ] = remark or other dose. A portion of the library; the hit share may differ from the screen's.

SMILES | V. cholerae QS
COc1ccc(C(CNC(=O)c2ccccc2C)N2CCCC2)cc1 (stereo not drawn) | 0
Cc1cccc(C)c1NC(=O)C1(NC(=O)c2cnccn2)CCCCC1 | 0
O=C(OCc1ccc(Cl)cc1)c1cnccn1 | 0
CCC(=O)NCCc1nc2ccccc2n1CC | 0
CC(C)OC(=O)C1C(=O)NC2(C)CC1c1ccccc1O2 (stereo not drawn) | 40
COC(=O)C1C(=O)NCC1c1ccc(OC)cc1 (stereo not drawn) | 40
Cc1cccc(NC(=O)C2CC(=O)n3cnnc3S2)c1 (stereo not drawn) | 40
CCCN1Cc2cccc(C(=O)Nc3ccc4c(c3)OCCO4)c2C1=O | 0
CCOC(=O)N1CCN(CC(O)c2ccc3cc[nH]c3c2)CC1 (stereo not drawn) | 0
COc1ccccc1CNS(=O)(=O)c1ccc(C)cc1 | 0
Cc1cccc(OCC(=O)NCc2ccncc2)c1C | 240
CC(=O)N1CCc2c(sc(NC(=O)C3CC3)c2-c2nc3ccccc3s2)C1 | 40
O=C(Nc1nc(-c2cc3ccccc3oc2=O)cs1)c1ccco1 | 40
C[C@@H]1CCC[C@H](C)N1NC(=O)c1ccc(Cl)c(S(N)(=O)=O)c1 | 0[10 µg/mL]
CN(C)c1cc[n+](CC(=O)Nc2cc(C(F)(F)F)ccc2Cl)cc1 | 0
CCn1c(C(=O)NC(C)c2ccc3c(c2)OCCO3)cc2sccc21 (stereo not drawn) | 0
CCCC(=O)Nc1ccccc1-c1nnc(SC)[nH]c1=O | 0
CN(Cc1ccccc1)c1oc(COc2ccccc2F)nc1C#N | 0
COc1cc2c(c(OC)c1OC)-c1ccc(OC)c(=O)cc1[C@@H](NC(C)=O)CC2 | 40[10 µg/mL]
CCc1ccccc1NC(=O)c1cc2ncc(Br)cn2n1 | 40
Cc1ccc(-c2nc3s/c(=C\c4ccco4)c(=O)n3n2)cc1 | 0
CCn1c(=O)n(CC)c2cc(S(=O)(=O)Nc3cc(C)cc(C)c3C#N)ccc21 | 800
O=c1c2ccccc2nc(-c2ccco2)n1-c1ccncc1 | 0
COc1cc(C2CC(=O)N3CN(Cc4ccco4)CSC3=C2C#N)ccc1OCc1ccccc1 (stereo not drawn) | 0
C=N[C@@H](C(=O)N[C@@H]1C(=O)N2[C@@H]1SC(C)(C)[C@@H]2C(=O)O)c1ccccc1 | 0[10 µg/mL]
CN1C(=O)c2oc3ccccc3c(=O)c2C1c1ccccn1 (stereo not drawn) | 0
CCOC(=O)CCNC(=O)CNC(=O)OCc1ccccc1 | 0
Cc1onc(-c2ccccc2Cl)c1C(=O)Nc1nnc(-c2cccc([N+](=O)[O-])c2)s1 | 0
C/C(N)=C(/C#N)C(=O)COC(=O)CCSc1ccccc1 | 0
CCn1c(N)nc2c1c(=O)n(C)c(=O)n2C | 0
CC1(C)CC(=O)C=C(NCCN2CCN(C(=O)Nc3ccc(Cl)cc3)CC2)C1 | 880
O=C(CN1CCN(C(=O)c2ccccc2)CC1)Nc1ccc(Br)cn1 | u
C#CCn1c(S(=O)(=O)Cc2ccc(OC)cc2)nc(-c2ccccc2)c1-c1ccccc1 | 0
Cc1[nH]c2ccccc2c1Cc1nnc(SCC(=O)NCc2ccco2)o1 | 40
CS(=O)(=O)N1CCN(Cc2ccccc2C(F)(F)F)CC1 | 0
C[C@H](O)C(=O)Nc1c(I)c(C(=O)NC(CO)CO)c(I)c(C(=O)NC(CO)CO)c1I | 0[10 µg/mL]
COC(=O)c1cccnc1-n1c(=O)c2cccnc2n(Cc2cccc(OC)c2)c1=O | 0
NC12CC3CC(CC(C3)C1)C2 | 0[10 µg/mL]
CN1CCOc2cc(S(=O)(=O)Nc3ccc(F)cc3)ccc21 | 40
Cc1nnc(SCC(=O)N2CCC(c3noc4ccc(F)cc34)CC2)s1 | 40
COc1ncnc(NS(=O)(=O)c2ccc(N)cc2)c1OC | 0[10 µg/mL]
CC(C)n1c(SCCCc2ccccc2)nc2c1c(=O)[nH]c(=O)n2C | 240
CC1(C(=O)O)Sc2[nH]c(=O)sc2C2c3ccccc3OC(=O)C21 (stereo not drawn) | 0
CC1CCCCN1CC(=O)Nc1ccc(Oc2ccccc2)cc1 (stereo not drawn) | 0
COc1ccc(S(=O)(=O)N(C)CC(=O)N2CCN(c3ccc(F)cc3)CC2)cc1OC | 0
CC(C)C(C(=O)Nc1ccc(S(=O)(=O)N2CCOCC2)cc1)N1C(=O)c2ccccc2C1=O (stereo not drawn) | 40
Cc1ccccc1-c1nc2sc(-c3ccccc3)cc2c(=O)o1 | 40
Cc1cc(/C=C(\C#N)C(=O)NCc2ccco2)c(C)n1C1CCCC1 | 0
Cc1onc(-c2c(Cl)cccc2Cl)c1C(=O)NCC1CCCO1 (stereo not drawn) | 0
O=C(Cn1nnc(-c2ccccc2F)n1)NCCc1ccccc1 | 0
CC(C)(C)NC(=O)[C@H]1CC[C@H]2[C@@H]3CC[C@H]4NC(=O)C=C[C@]4(C)[C@H]3CC[C@]12C | 0[10 µg/mL]
Cc1cc(C)n2nc(S(=O)(=O)N(CC(C)C)CC(C)C)nc2n1 | 40
COc1ccccc1NC(=O)C1CC(=O)N(c2ccc(F)cc2)C1 (stereo not drawn) | 0
COc1ccccc1NC(=O)NCCN1C(=O)C2C3C=CC(C3)C2C1=O (stereo not drawn) | u
COc1ccc(C(c2sc3nc(C)nn3c2O)N2CCN(Cc3ccccc3)CC2)cc1OC (stereo not drawn) | 40
COc1cccc(NC(=O)CSc2nc3c(c(=O)n2C)SC(C)C3)c1 (stereo not drawn) | 40
Cc1ccc2cc(-c3noc(C4CCCO4)n3)c(=O)[nH]c2c1 (stereo not drawn) | 40
C(=N\n1cnnc1)/c1cn(-c2cccs2)nc1-c1ccccc1 | 40
CCC(C)C(NC(=O)C1CCC(C)CC1)C(=O)NC(CCSC)C(=O)OC (stereo not drawn) | 0
Clc1ccc(-n2ncc3c(NCC4CCCO4)ncnc32)cc1 (stereo not drawn) | 40
(cont.)
SMILES | V. cholerae QS
CCCC(=O)NCCCc1nc2ccccc2n1C(C)C | 0
CC(C)(C)c1ccc(CSc2nnc(-c3ccccn3)n2Cc2ccco2)cc1 | 0
CCCC(c1nnnn1CC(=O)OCC)N(Cc1cc2c(C)cc(C)cc2[nH]c1=O)C1CCCC1 (stereo not drawn) | 0
CN1CC=C(c2c[nH]c3ccccc23)CC1 | 40
CSC1CCCCC1(O)CSc1nc2c(cc1C#N)CCCC2 (stereo not drawn) | 40
Cc1ccc(C(C)C)c(OCc2nc(-c3nonc3N)no2)c1 | u
O=C(COc1ncnc2ccccc12)NCCC1=CCCCC1 | 280
CCOC(=O)c1ccc(NC(=O)C2CCCN(S(=O)(=O)c3cnc[nH]3)C2)cc1 (stereo not drawn) | 0
COc1ccccc1N1CCN(C(=O)c2cc3c(=O)n(C)c4ccccc4c3n2C)CC1 | 40
COc1cc(NC(=O)c2cc(-c3cccs3)on2)cc(OC)c1OC | 40
CCN1CCN(C(=O)C2CCN(S(=O)(=O)c3cccc4cccnc34)CC2)CC1 | u
C[C@@]12N[C@@H](Cc3ccccc31)c1ccccc12 | 0[10 µg/mL]
CC1CCc2cc(F)cc3c(=O)c(C(=O)O)cn1c23 (stereo not drawn) | 0[10 µg/mL]
CCOC(=O)C1=C(CS(=O)(=O)c2ccccc2)NC(=O)NC1c1ccccc1OCC (stereo not drawn) | 40
Cc1ccc(-c2nc(C3CCCN(S(=O)(=O)c4ccc(C)cc4)C3)no2)cc1 (stereo not drawn) | 40
CC1(C)S[C@@H]2[C@H](NC(=O)C(C(=O)O)c3ccsc3)C(=O)N2[C@H]1C(=O)O (stereo partly drawn) | 0[10 µg/mL]
CCCCCSc1nc2c(c(=O)[nH]c(=O)n2C)n1C(C)C | 0
COc1ccc(N/C(N)=N/c2nc(CSc3ccc(Cl)cc3)cc(=O)[nH]2)cc1 | 0
O=C(c1cnccn1)N1CCN(S(=O)(=O)c2ccc3ccccc3c2)CC1 | 0
CCOC(=O)N1CCN(C(=O)CSc2ncnc3ccccc23)CC1 | 0
O=C(NC12CC3CC(CC(C3)C1)C2)N1CCCC(CO)C1 (stereo not drawn) | 0
CN[C@@H]1C(O[C@H]2O[C@H](CO)[C@@H](N)[C@H](O)[C@H]2O)O[C@H]2C[C@@H](N)[C@@H](O[C@H]3[C@H](O)[C@@H](O)[C@H](N)C[C@@H]3N)OC2[C@@H]1O (stereo partly drawn) | 0[10 µg/mL]
CSC1=NCCN1C(=O)Cc1ccc(Cl)cc1 | 0
CCOC(=O)c1sc2nc(NC(=O)C3CCCCC3)sc2c1C | 40
C/C(=N\OCC(=O)N/N=C/c1ccccc1O)c1cccs1 | 0
CC1=C(C(=O)OCC(C)C)C(c2cccc(F)c2)N2C(=O)C(C)SC2=N1 (stereo not drawn) | 0
CCOC(=O)C1CCCN(c2c(Nc3cccc(C)c3)c(=O)c2=O)C1 (stereo not drawn) | 0
CCC1CCCCN1C(=O)c1cc2cc(Br)ccc2oc1=O (stereo not drawn) | 0
Cc1ccc(C(=O)Nc2ccc3cn[nH]c3c2)cc1S(=O)(=O)N1CCCCC1 | 80
Cc1nc2cc(C(F)(F)F)ccc2n1C1CCN(C(=O)N2CCOCC2)CC1 | 0
Cc1nc(SCc2c(F)cccc2Cl)c2c(=O)n(C)c(=O)n(C)c2n1 | 0
CCN(c1cccc(C)c1)c1nc2ccsc2c(=O)s1 | 40
Cc1ccc(/C=C2\Sc3ccccc3C2=O)s1 | 0
Cc1noc(C)c1S(=O)(=O)NCc1ccc2c(c1)OCO2 | 40
CCOC(=O)N1CCC(NC(=O)c2ccc3c(c2)N(Cc2ccccc2)CCS3)CC1 | 40
CCOC(=O)N1CCN(CC(=O)Nc2ccc(Oc3ccccc3)cc2)CC1 | 280
CCOC(=O)C(CSCC(=O)c1ccc(Br)cc1)NC(=O)OC(C)(C)C (stereo not drawn) | 0
CCOC(=O)N1CCN(C(=O)CSc2nnc(C3COc4ccccc4O3)o2)CC1 (stereo not drawn) | 0
O=C(Nc1ccc(NC(=O)C2CC2)nc1)c1ccccn1 | 0
CC(C)C(c1nnnn1C1CCCCC1)N1CCc2ccccc21 (stereo not drawn) | 40
CN1C(C(=O)Nc2ccccn2)=C(O)c2sccc2S1(=O)=O | 0[10 µg/mL]
CCCn1c(C(O)c2ccc(OCC)cc2)nc2ccccc21 (stereo not drawn) | 0
Cc1c(NC(=O)CCCCCN2C(=O)C3C4C=CC(C4)C3C2=O)c(=O)n(-c2ccccc2)n1C (stereo not drawn) | 0
CC(C)(C)NC(=O)NC(=O)COC(=O)c1cc(=O)[nH]c2ccccc12 | 0
Cc1c2cnn(-c3ccccc3)c(=O)c2c(C)n1CCCC(=O)N1CCN(C)CC1 | 40
Cc1csc(NC(=O)c2cc3c(s2)-c2ccccc2OC3)n1 | 40
COc1ccc(C(CNC(=O)c2cccnc2SC)N2CCOCC2)cc1 (stereo not drawn) | 0
CN(C)S(=O)(=O)c1ccc(C(=O)Nc2ccccc2F)cc1 | 0
CCOC(=O)N1CCN(C(=O)CSc2nc(-c3cccc(C)c3)ns2)CC1 | 40
CCOC(=O)c1ccc(NC2c3ccccc3C(=O)N2c2ccc(C)cn2)cc1 (stereo not drawn) | 40
Cn1ncc(N=Cc2ccc([N+](=O)[O-])cc2)c1C(=O)N1CCOCC1 | 0
O=C(O)c1cc(Cl)c(Cl)cc1C(=O)N1CCCC1 | 0
CC[N+](CC)(CC)CCOc1cccc(OCC[N+](CC)(CC)CC)c1OCC[N+](CC)(CC)CC | 0[10 µg/mL]
CCOC(=O)c1cnc(SC)nc1Oc1cccc(NS(=O)(=O)c2ccc(Cl)cc2)c1 | 0
CCN(CC)/C(=N/S(=O)(=O)c1ccc(C)cc1)c1ccccc1 | 0
Cc1ccc2c(c1)-c1c(cnn1CC(=O)N(CCC#N)c1ccccc1)CO2 | 0
CCCCOC(=O)Cn1c2ccc(OC)cc2c2nc3ccccc3nc21 | 0
CCOC(=O)Cn1c(=O)oc2cc(S(=O)(=O)NCc3ccccn3)ccc21 | 40
CCOc1ccc2c(c1)n([O-])c1c([n+]2=O)CCCC1 | 0
NC[C@H]1O[C@H](OC2[C@@H](N)C[C@@H](N)[C@H](O)[C@H]2O[C@@H]2O[C@H](CO)[C@@H](O)[C@H]2O)[C@H](N)[C@@H](O)[C@@H]1O (stereo partly drawn) | 0[10 µg/mL]
CCN1CCN(C(C(=O)NC2CCCC2)c2ccc(Cl)cc2)CC1 (stereo not drawn) | 0

Screens (PubChem)
